Rango dissoc inh = prevents RanGTP from dissociating the Rango-importin beta complex | O95149+P62826 | Biochemical FRET Rango-importin beta, RanGTP-induced dissociation | Potency, µM (series often up to 46.1 µM), without a hit: at the top dose activity change, negative = inhibition | actives 0.071% (n = 340,000) | AID 540253; active means falling FRET ratio curve, often poorly fitted, with flat reads before Ran was added; inconclusive means other falling curves, or compound fluorescence or quenching; inactive means flat or rising ratio curve;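 note: potency is the fitted concentration of half-maximal effect; % of control where 0% means no effect; nearly all actives have a fitted effect of over 45% in size; -100% = wells without RanGTP and RCC1; the record marks most hits as doubtful in a second field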
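FRET read at 45 min, room temperature: inhibitors block the CFP/YFP signal rise when RanGTP (0.6 uM Ran, 2 mM GTP, 0.2 uM RCC1) frees Rango (0.1 uM) from importin beta (0.25 uM). Pre-read after 5 min compound exposure flags interference.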
Rango complex inh = inhibitors of Rango-importin beta complex formation; Potency, µM (titrated, usually from 92.2 µM), for inactives: at the top dose inhibition of complex formation; Rango CFP/YFP FRET sensor + importin beta, 45 min; actives 0.031% (n = 340,000); active = rising FRET ratio curve, often small or poorly fitted; inconclusive = mostly compound fluorescence or quenching in the first reads; inactive = flat curves in all reads;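 note: potency is the fitted concentration of half-maximal effect; 0% = DMSO wells and 100% = buffer wells lacking importin beta; nearly all actives have a fitted effect of over 15% in size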
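FRET biosensor Rango (snurportin 1 IBB between N-terminal EYFP and C-terminal Cerulean), 50 nM in PBS/1 mM DTT/0.02% Tween-20/0.1% BSA, preincubated 5 min RT with compound; 0.125 microM importin beta added, 45 min RT, CFP/YFP FRET ratio read.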
GLA inh pH 4.5 = inhibitors of human alpha-galactosidase A at pH 4.5; P06280; purified enzyme, 4-MU-alpha-Gal fluorescence, pH 4.5; activity change, negative = inhibition, % at 105 µM; 230,000 tested, under 10 active; AID 1467; inconclusive = small, poorly fitted or top-dose-only inhibition, or a rising curve; inactive = flat fitted curve, though single readings scatter; no compound was filed as active;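 note: 0% = full activity with enzyme and -100% = basal without enzyme; dose as in the result columns while the protocol names 77 µM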
Target sequence (P06280 whole entry, looked up): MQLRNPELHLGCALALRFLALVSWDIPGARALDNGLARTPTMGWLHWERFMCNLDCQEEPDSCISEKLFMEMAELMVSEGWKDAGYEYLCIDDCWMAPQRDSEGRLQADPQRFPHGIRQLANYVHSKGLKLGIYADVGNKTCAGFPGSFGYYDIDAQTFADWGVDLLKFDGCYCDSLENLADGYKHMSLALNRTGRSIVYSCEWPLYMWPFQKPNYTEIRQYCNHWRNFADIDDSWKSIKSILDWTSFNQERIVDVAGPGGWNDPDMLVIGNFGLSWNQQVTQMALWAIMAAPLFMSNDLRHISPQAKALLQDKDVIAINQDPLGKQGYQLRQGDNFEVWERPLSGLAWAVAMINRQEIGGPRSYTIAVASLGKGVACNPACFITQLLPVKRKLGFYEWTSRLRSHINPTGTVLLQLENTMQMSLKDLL
miR-21 FLuc = miR-21 reporter, rising signal; HeLa miR-21 FLuc reporter, luciferase, 48 h; Potency, µM (series often up to 38.3 µM), for the others: at the highest dose reporter change, positive = more light; 340,000 tested, under 10 active; AID 2288; active = well fitted rising curve with a large enough effect; inconclusive = small, poorly fitted or top-dose-only effect; inactive = no such curve, though single readings can be large or run the other way;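 note: % of control where 0% means no effect; miR-21 action dims this reporter so a rising signal means less miR-21 action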
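HeLa miR-21-FLuc reporter line, endogenous miR-21; 2000 cells/well in DMEM/10% FBS; compound titration up to ~40uM final, 48 h, 37 degree Celsius; luciferase detection reagent, 15 min lysis, CCD luminescence.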
An asterisk follows results filed as active; ? = inconclusive; . = no result given; & = joins results of further samples. The list is partial. The share of hits here may be higher or lower than overall.

mol	Rango dissoc inh	Rango complex inh	GLA inh pH 4.5	miR-21 FLuc
CC(C)c1ccc(/C=N/n2c(-c3ccccc3)n[nH]c2=S)cc1	17%	1.4%	.	0%
Cc1ccsc1-c1nc(C(N)=O)c2[nH]c(=O)n(-c3ccc(Cl)cc3)c2n1	0%	?	14	0%
O=C(Cn1cncn1)c1ccccc1Br	?	-2.5%	.	-4%
COc1ccccc1N1CCN(C(=O)CSc2nnc(NC(=O)C3CCC3)s2)CC1	1%	-4.4%	5	7%
COc1ccc(Nc2nc(N)nc(CSCCO)n2)cc1	-6%	1.6%	-2	-45%
CCC(=O)NC(=S)Nc1ccc(S(=O)(=O)N2CCN(C)CC2)cc1	5%	8.1%	2	-7%
Cc1onc(-c2c(Cl)cccc2Cl)c1C(=O)NCCc1ccncc1	-5%	6.7%	.	-4%
CC(C)CCNC(=O)CN(CCN1CCOCC1)C(=O)Cn1nnc(-c2ccc(F)cc2)n1	18%	0.2%	0	-5%

Next results follow:
mol	Rango dissoc inh	Rango complex inh	GLA inh pH 4.5	miR-21 FLuc
O=[N+]([O-])c1ccc(/C=N/Nc2ccccn2)cc1	?	1.7%	.	-20%
Cc1c(Cl)c([N+](=O)[O-])nn1CC(=O)Nc1c(C)n(C)n(-c2ccccc2)c1=O	-13%	5.1%	-4	1%
O=C(COC(=O)c1ccccc1C(=O)c1ccc(Cl)c([N+](=O)[O-])c1)NC1CC1	-11%	-3.8%	0	?
Cc1ccc2[nH]c(=O)c(C(c3nnnn3CC3CCCO3)N3CCc4ccccc4C3)cc2c1 (stereo not given)	?	?	-13	-6%
Cc1ccc(C(c2sc3nc(C)nn3c2O)N2CCOCC2)cc1 (stereo not given)	-4%	-1.4%	-4	-1%
CC12CCC(=O)N1C(C(=O)NNC(=O)c1ccccc1F)CS2 (stereo not given)	-2%	6.3%	.	.
CC(C)(C)c1ccc(/C=C/C(=O)NCCCn2ccnc2)cc1	19%	1.3%	.	-13%
O=C(CCCN1C(=O)/C(=C/c2cccs2)SC1=S)Nc1ccc(O)cc1	-16%	-0.7%	.	8%

The results go on.
mol	Rango dissoc inh	Rango complex inh	GLA inh pH 4.5	miR-21 FLuc
O=C(Nc1sc2c(c1C(=O)O)CCCCC2)c1ccccc1F	-7%	1.3%	1	21%
CCCc1n(CC(O)COCc2ccccc2)c2ccccc2[n+]1C (stereo not given)	0%	-0.3%	-11	0%
O=[N+]([O-])c1cccc(-c2nnc3n2CCCCC3)c1	-11%	4.0%	.	0%
C=CCn1c(C)nnc1SCC(=O)Nc1nccs1	-8%	0.0%	.	2%
Cc1cc(OC(=O)CNC(=O)OC(C)(C)C)c2c(C)cc(=O)oc2c1	?	?	.	-1%
O=c1[nH]c(-c2ccccc2)nnc1-c1ccccc1	9%	1.3%	8	-25%
Cc1cccn2c(=O)c3cc(C#N)c(=N)n(Cc4ccncc4)c3nc12	.	.	-16	-3%
CCN(CC(=O)Nc1c(Cl)cccc1Cl)C(=O)C1CCN(c2ncnc3sc(C)c(C)c23)CC1	?	2.2%	.	.

(continued)
mol	Rango dissoc inh	Rango complex inh	GLA inh pH 4.5	miR-21 FLuc
CN(c1ccccc1)S(=O)(=O)c1cccc(C(=O)Nc2nccs2)c1	-3%	0.3%	-4	12%
Cc1cccn2c(=O)c(/C=C3\SC(=S)NC3=O)c(NCCCN3CCOCC3)nc12	?	?	-22	-33%
CCOc1ccc(/C=C2\SC(=S)N(CCC(=O)O)C2=O)cc1	-15%	3.4%	-11	16%
CCCc1cc(=O)oc2c(C)c(OCC(=O)NC3CCN(Cc4ccccc4)CC3)ccc12	5%	1.8%	.	-1%
Cc1[nH]n(-c2ccccc2)c(=O)c1/C=N/N1C(=O)c2ccc3c4c(ccc(c24)C1=O)CC3	-4%	3.4%	-4	11%
COCCCn1c(=O)c2ccccc2n(Cc2cccc(C)c2)c1=O	-7%	3.3%	.	-3%
COc1ccc(C2SCC(C(=O)O)N2C(C)=O)cc1OC (stereo not given)	7%	0.0%	-2	-3%
Cn1cnnc1SCC(=O)Nc1ccccc1Sc1ccccc1	2%	6.1%	-5	-1%

Following part:
mol	Rango dissoc inh	Rango complex inh	GLA inh pH 4.5	miR-21 FLuc
CC(C)C(OC(=O)c1ccccc1)c1nccc2ccccc12 (stereo not given)	16%	-1.4%	-3	-57%
CC(=O)Oc1ccc(C(=O)Nc2ccc3c(c2)C(=O)N(CCC(=O)O)C3=O)cc1	0%	0.8%	3	2%
Cc1ccccc1OCCn1c(S(=O)(=O)O)nc2c(N)ncnc21	12%	2.3%	.	-7%
Cc1cc(C(F)(F)F)nc(-n2cc(-c3cccc(N)c3)nn2)n1	-10%	0.5%	8	-2%
Cc1sc2nc(-c3ccccn3)[nH]c(=O)c2c1-c1ccccc1	-6%	-4.2%	1	-19%
Cc1cc(NC(=O)c2cc(-c3ccc4c(c3)OCO4)on2)n(-c2ccccc2)n1	-9%	7.0%	-4	-7%
CC(C)c1ccc(C(CC(=O)c2ccc(Cl)cc2)C(=O)O)cc1 (stereo not given)	-1%	5.1%	0	-4%
CC(=O)N1CCc2cc(C(=O)CN3CCCN(Cc4ccc(F)cc4)C3)ccc21	.	.	-1	-10%

(next part)
mol	Rango dissoc inh	Rango complex inh	GLA inh pH 4.5	miR-21 FLuc
O=C(NCCc1c[nH]c2ccccc12)c1cc([N+](=O)[O-])cc([N+](=O)[O-])c1	-12%	-0.6%	.	-1%
O=C(OCC(=O)N(Cc1ccccc1)Cc1ccccc1)c1cccc(O)c1	0%	1.0%	.	.
Nc1nc(C2CCCN2S(=O)(=O)c2ccc(Cl)cc2)cs1 (stereo not given)	6%	2.9%	-1	-1%
Cc1nn(CC(=O)O)c(=O)c2ccccc12	1%	1.4%	-2	0%
CCc1ccc(/C(C)=N\Nc2ccc([N+](=O)[O-])cc2)cc1	?	?	-10	-31%
CN(C)c1ccc(C#Cc2ccc3cc(CCCO)oc(=O)c3c2)cc1	-6%	-5.2%	.	.
COc1ccccc1CCNC(=O)Cn1ccc2cc(S(=O)(=O)N3CCCC3)ccc21	3%	-5.6%	.	0%
Clc1ccc(C2Nc3cccc4cccc(c34)N2)cc1	3%	-0.2%	.	-3%

Going on with the list.
mol	Rango dissoc inh	Rango complex inh	GLA inh pH 4.5	miR-21 FLuc
COc1ccc(OC)c(S(=O)(=O)NCC(=O)NC2CCCCCC2)c1	-4%	-3.6%	.	.
CCN(CC(=O)Nc1ccc2c(c1)OCCO2)C(=O)c1ccc(Cl)cc1Cl	8%	3.2%	.	.
COc1ccc(CN2CCC(C(=O)N3CCCC(C)C3)CC2)cc1OC (stereo not given)	22%	-2.3%	7	-1%
CCCN(CCC)S(=O)(=O)c1ccc(C(=O)N2CCOCC2)cc1	0%	-2.3%	11	-1%
COCCNC(=O)C(c1ccc(C)cc1)N(Cc1ccccc1)C(=O)CCC(=O)Nc1ccccn1 (stereo not given)	3%	0.9%	.	5%
CCn1cc(/C=C(\NC(=O)c2ccc(C)cc2)C(=O)NCCCN2CCOCC2)c2ccccc21	-3%	-3.1%	.	-3%
CC1(C)OC(=O)N(NCc2ccccc2)C1(C)O (stereo not given)	2%	-0.3%	.	-1%
O=C(O)c1cc(Cl)c(Cl)cc1C(=O)Nc1cccc2ncccc12	-2%	5.4%	6	-5%

Additional records follow:
mol	Rango dissoc inh	Rango complex inh	GLA inh pH 4.5	miR-21 FLuc
C/C(=N\NC(=O)c1ccc(Cl)c(Cl)c1)c1cccc(NC(=O)C(C)C)c1	6%	0.4%	-6	-14%
COc1ccc(COC(=O)CN2C(=O)NC3(CCCC3)C2=O)cc1F	13%	-0.1%	.	.
COc1ccc(CCNC(=O)CCS(=O)(=O)c2ccc3nc(C)sc3c2)cc1OC	4%	-1.1%	.	0%
COc1ccc(CNC(=O)c2cc(-c3ccncc3)nc3c(C)cc(C)cc23)cc1OC	-2%	-0.2%	-6	5%
CS(=O)(=O)N(CC(=O)N1CCCCCC1)c1cccc(Cl)c1Cl	-13%	-6.2%	.	0%
O=C(COC(=O)COc1cccc(C(F)(F)F)c1)NC(=O)NC1CCCCC1	15%	0.9%	.	.
Cn1cccc1C(=O)NCc1ccc(S(N)(=O)=O)cc1	3%	-3.1%	.	-3%
Clc1cccc(Cl)c1CSc1nnc(-c2ccncc2)s1	9%	4.7%	-4	-4%

Next compounds follow:
Every second line gives: Rango dissoc inh | Rango complex inh | GLA inh pH 4.5 | miR-21 FLuc
COc1cc2nc(CN3CCN(C(c4ccccc4)c4ccccc4)CC3)[nH]c(=O)c2cc1OC
 : . | . | -1 | 0%
Cc1ccc(-c2n[nH]c(=S)n2C)cc1
 : ? | 0.7% | 6 | -14%
O=C(CC(NC(=O)c1ccccc1Cl)c1ccccc1)Nc1ccc2c(c1)OCO2 (stereo not given)
 : 15% | 5.1% | 2 | -20%
Cc1cccc(CCN2C(N(C)C)=NC[C@@H]2Cc2ccccc2)c1
 : 1% | -2.2% | . | .
COc1ccc(C)cc1NC(=O)CN(C)S(=O)(=O)c1ccc2c(c1)CCCN2C(C)=O
 : 0% | -3.4% | . | 1%&-1%
Cn1ncc2c(NCCO)nc(Cl)nc21
 : -7% | 0.4% | . | .
CC(=O)Nc1ccc(-c2csc(NC=C3C(=O)OC(C)(C)OC3=O)n2)cc1
 : ? | -6.4% | -1 | -28%
O=C(CNC(=O)c1ccc(-c2ccccc2)cc1)OCc1c(F)cccc1Cl
 : -23% | 5.3% | -4 | -5%
O=C(CSc1nnc(CNC(=O)c2ccc(F)cc2)o1)Nc1ccc2c(c1)OCCO2
 : 15% | 0.6% | . | 1%
CCCOc1ccc(NC(=O)C(=O)NCCCn2ccnc2)cc1
 : 15% | 0.2% | 0 | -2%
CC(=O)NC(=S)Nc1ccccc1N1CCCCC1
 : -6% | -4.3% | 14 | -3%
Cc1noc(NS(=O)(=O)c2ccc(NC(=O)C(C)(C)C)cc2)c1C
 : 5% | 3.0% | . | 0%
Cc1cccc(NS(=O)(=O)c2cccc(C(=O)N3CCN(c4ccccn4)CC3)c2)c1
 : ? | -0.1% | . | 17%
N#C/C(=N\Nc1ccc(Cl)c(Cl)c1)C(=O)C1CC1
 : 10% | ? | -19 | -26%
Cc1ccc(-c2nnn(CC(=O)N(c3ccccc3F)C(C(=O)NCC3CCCO3)c3c[nH]c4ccccc34)n2)cc1 (stereo not given)
 : -10% | -3.2% | 2 | 2%
O=C(CCNC(=O)c1ccc([N+](=O)[O-])cc1)Nc1nccs1
 : -8% | 4.6% | 6 | -1%
O=C(Nc1ccc(Br)cc1Cl)Nn1cnnc1
 : 3% | -1.3% | 5 | -6%
Cc1ccc(-c2ccc(/C=N\NC(=O)C3C(=O)NCC3c3ccccc3)o2)cc1Cl (stereo not given)
 : -12% | -3.4% | -11 | 10%
Cc1ccc(O)c(-c2cc(-c3cccc(Br)c3)n[nH]2)c1
 : -14% | -0.3% | 2 | -64%
Cc1ccccc1NC(=O)COc1coc(CN2CCN(c3ccccc3)CC2)cc1=O
 : 2% | 1.5% | . | .
Cc1cc(C(=O)OCn2nnc3ccccc3c2=O)c(C)n1-c1ccccc1
 : -1% | -2.2% | 1 | -25%
Cc1ccc(C2C(=O)N(C3CCC(C)CC3)CC(=O)N2C2CCCC2)cc1 (stereo not given)
 : 13% | 0.3% | 7 | -7%&-3%
O=C(NCc1ccco1)c1cc(-c2ccccc2)on1
 : -10% | -6.9% | -15 | -80%
CCOC(=O)C1CCCN(CC(=O)Nc2c(C(=O)OC)[nH]c3ccc(Cl)cc23)C1 (stereo not given)
 : -15% | -0.4% | -11 | 10%

Full records, looked up by structure. Order of values: Rango dissoc inh	Rango complex inh	GLA inh pH 4.5	miR-21 FLuc
Entry for `Cn1ncc2c(NCCO)nc(Cl)nc21` : -7%	0.4%	.	.
Entry for `Cc1cccc(NS(=O)(=O)c2cccc(C(=O)N3CCN(c4ccccn4)CC3)c2)c1` : ?	-0.1%	.	17%
Entry for `COc1ccc(C)cc1NC(=O)CN(C)S(=O)(=O)c1ccc2c(c1)CCCN2C(C)=O` : 0%	-3.4%	.	1%&-1%
Entry for `Cc1ccc(C2C(=O)N(C3CCC(C)CC3)CC(=O)N2C2CCCC2)cc1` (stereo not given) : 13%	0.3%	7	-7%&-3%
Entry for `O=C(CC(NC(=O)c1ccccc1Cl)c1ccccc1)Nc1ccc2c(c1)OCO2` (stereo not given) : 15%	5.1%	2	-20%
